TSHR ag: activates the human thyroid stimulating hormone receptor; 73,000 tested, 0.48% active; P16473; HEK293-CNG-TSHR cells (CNG channel as cAMP sensor), membrane potential dye, cAMP; Potency, µM (series often up to 57.1 µM), for inactives: at the highest dose activation, actives largely listed as activators; active = well fitted activation curve of enough size with the parental cells flat; inconclusive = any curve in the parental cells; inactive = parental cells flat and receptor cells flat or falling; also: potency is read from the fitted curve at half-maximal effect; % of control where 0% means no effect; weak receptor curves with flat parental cells got no call and are not listed
Target sequence (P16473 whole entry, looked up): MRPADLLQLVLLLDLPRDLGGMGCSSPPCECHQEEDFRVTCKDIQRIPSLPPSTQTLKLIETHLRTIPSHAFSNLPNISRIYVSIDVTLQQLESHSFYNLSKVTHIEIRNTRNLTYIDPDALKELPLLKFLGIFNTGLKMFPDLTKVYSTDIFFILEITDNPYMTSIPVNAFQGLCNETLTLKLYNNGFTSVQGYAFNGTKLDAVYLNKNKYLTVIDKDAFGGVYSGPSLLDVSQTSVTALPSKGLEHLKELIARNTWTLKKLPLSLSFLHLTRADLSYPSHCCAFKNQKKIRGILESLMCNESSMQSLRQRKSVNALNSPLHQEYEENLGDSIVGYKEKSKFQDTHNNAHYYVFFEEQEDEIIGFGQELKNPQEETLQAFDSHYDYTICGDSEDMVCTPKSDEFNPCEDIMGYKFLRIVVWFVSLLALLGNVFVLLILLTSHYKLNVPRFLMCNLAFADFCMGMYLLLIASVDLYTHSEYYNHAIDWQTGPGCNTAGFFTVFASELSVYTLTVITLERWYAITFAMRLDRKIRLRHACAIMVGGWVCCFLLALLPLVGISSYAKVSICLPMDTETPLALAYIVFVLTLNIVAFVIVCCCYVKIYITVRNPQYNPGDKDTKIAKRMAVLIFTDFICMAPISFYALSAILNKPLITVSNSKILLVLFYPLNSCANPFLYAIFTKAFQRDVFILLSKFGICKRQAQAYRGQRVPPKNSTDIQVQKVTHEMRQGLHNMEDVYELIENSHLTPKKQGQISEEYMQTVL
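cAMP rise detected as CNG-channel membrane depolarization by fluorescent dye (emission 590 nm), 30 min after compound, following 60 min dye loading containing 100 uM RO 20-1724 at room temperature. Cells: TSHR/CNG HEK 293, with parental CNG HEK 293 as control.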
A488 fluor: A488 region autofluorescence; compound autofluorescence, A488 spectral region, dye equivalency; hits give high values; max dye equivalency, M; 59,000 tested, 0.1% active; AID 591; active = above 10 nM dye equivalent; inconclusive = 1 to 10 nM; inactive = 1 nM or less; about half of its hits are not listed in these tables;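 also: highest value over a series up to 38 µM; compound alone in buffer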
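Intrinsic compound fluorescence is measured in 100 mM Tris buffer at pH 8.0 following 15 min incubation at room temperature. Intensities at 480 nm excitation/540 nm emission are calibrated to an on-plate A488 concentration series, giving dye-equivalent concentrations.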
Resorufin fluor: compounds fluorescent in resorufin spectral region. Compound fluorescence, resorufin region 547/598 nm, buffer; hits give high values. max dye-equivalent concentration, M. 59,000 tested, 0.04% active; active = above 10 nM dye equivalent; inconclusive = 1 to 10 nM; inactive = 1 nM or less; a few of its hits are not listed in these tables; also: highest value over a series up to 38 µM
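Dye-equivalent concentration values derive from comparing each well's 547/598 nm fluorescence against resorufin standards included on every plate. Incubation was 15 min at room temperature in 100 mM Tris, pH 8.0.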
A647 fluor: compound fluoresces in the A647 spectral region | max dye-equivalent concentration, M | 59,000 tested, under 10 active | Compound fluorescence, A647 channel (570/671 nm), Tris buffer; active means above 1 µM dye equivalent; inconclusive means 0.1 to 1 µM; inactive means 0.1 µM or less;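 also: values scaled relative to a standard on each plate; highest value over a series up to 38 µM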
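Each compound's intrinsic fluorescence at 570 nm excitation and 671 nm emission is measured across its concentration series in 100 mM Tris, pH 8.0, after 15 min at room temperature, and reported relative to an A647 curve.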
AID923: qHTS Assay for Allosteric/Competitive Inhibitors of Caspase-1: Spectroscopic Profiling in AFC Spectral Region | 75,000 tested, 1.1% active | Potency, µM (titrated, usually from 57.5 µM), without a hit: at the highest dose fluorescence increase, hits mostly activators | compound fluorescence, AFC spectral region (405/520 nm); almost no hit is shown here; active = well fitted activation curve with a large enough effect; inconclusive = small, poorly fitted or top-dose-only effect;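 also: potency is read from the fitted curve at half-maximal effect; 0% is about no effect; scaled to a free AFC standard on each plate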
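Compound autofluorescence profiled at 405 nm ex/520 nm em during kinetic caspase 1 run (50 nM enzyme, 5 uM Ac-WEHD-AFC, HEPES pH 7.5, 10 mM DTT). Titration up to 57 uM; baseline from regression intercept, normalized to AFC standard curve.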
* marks the source's active call; other numbers are inactive results; i = inactive; ? = inconclusive; . = no result given; [ ] = dose if it differs, or a comment. This is a subset; the hit share may differ from the screen's.

SMILES | TSHR ag | A488 fluor | Resorufin fluor | A647 fluor | AID923
O=C(NCC1COc2ccccc2O1)C1CCCN(S(=O)(=O)c2cccc3cccnc23)C1 (centres undefined) | 22% | . | . | . | -0.1%
CS(=O)(=O)Nc1cccc(-c2cncnc2Nc2ccccc2)c1 | -1% | i | i | 2e-09 | 1.4%
Cc1cnc2cc(Cl)ccc2c1SCC(=O)O | 1%[11.4 µM] | i | i | 1e-09 | -3.0%[11.5 µM]
O=C(CCN1CCN(c2ccccc2F)CC1)c1ccc(Br)cc1 | ? | i | i | 1.2e-09 | 5.9%
CCC(C)c1ccc(NC(=O)CC(C)=O)cc1 (centres undefined) | ? | i | i | 1.9e-08 | -3.7%
COC(=O)c1ccc2c(c1)N(Cc1nc(-c3ccc(Cl)cc3)oc1C)C(=O)C1CCCN21 (centres undefined) | -6% | i | i | 3.7e-08 | 0.8%
COc1ccccc1NC(=O)Cn1nc(C(F)(F)F)c2c1CCCC2 | ? | i | i | 1e-09 | 0.3%
COC(=O)Nc1sc2c(c1C(N)=O)CCCCCC2 | . | i | i | 1.5e-08 | 0.8%
Cn1c(=O)oc2ccc(C(=O)CSc3nnnn3-c3ccccc3)cc21 | 19% | i | i | 1e-09 | 1.8%
CCOC(=O)C(NC(=O)c1ccccc1)(N1CCCC1=O)C(F)(F)F (centres undefined) | 1% | i | i | 1e-09 | -0.7%

An excerpt from above in order of length of the SMILES, rising:
SMILES | TSHR ag | A488 fluor | Resorufin fluor | A647 fluor | AID923
Cc1cnc2cc(Cl)ccc2c1SCC(=O)O | 1%[11.4 µM] | i | i | 1e-09 | -3.0%[11.5 µM]
COC(=O)Nc1sc2c(c1C(N)=O)CCCCCC2 | . | i | i | 1.5e-08 | 0.8%
O=C(CCN1CCN(c2ccccc2F)CC1)c1ccc(Br)cc1 | ? | i | i | 1.2e-09 | 5.9%
COc1ccccc1NC(=O)Cn1nc(C(F)(F)F)c2c1CCCC2 | ? | i | i | 1e-09 | 0.3%

Continued:
SMILES | TSHR ag | A488 fluor | Resorufin fluor | A647 fluor | AID923
O=C(CCC(=O)N1CCN(C2CCCCC2)CC1)Nc1nnc(C(F)(F)F)s1 | 10% | i | i | 2.5e-08 | -0.5%
O=C(c1cc(S(=O)(=O)N2CCCCC2)c(Cl)cc1N1CCOCC1)N1CCOCC1 | 14% | . | . | . | -0.4%
N#C/C(=C\Nc1ccccn1)C(=O)c1ccco1 | 0%[11.4 µM] | i | i | 1e-09 | 2.9%[11.5 µM]
CCOc1ccc(OCC)c(NC(=O)CN(c2ccc(C)cc2)S(=O)(=O)c2c(C)noc2C)c1 | 11% | i | i | 2.5e-08 | -0.3%
Cc1cccc(C)c1NC(=O)Cn1nnc(-c2ccc(N3CCOCC3)cc2)n1 | -1% | i | i | 8.5e-09 | -0.3%
CC[C@](N)(CCC(=O)O)C(=O)O | 4% | . | . | . | 0.1%
CCCc1[nH]nc2c1C(c1cccc(OC(=O)c3ccco3)c1)C(C#N)=C(N)O2 (centres undefined) | . | i | i | 4.8e-09 | -2.7%
CC(C)CCn1c(=O)c2ccccc2n2c(CN(C)Cc3ccccc3)nnc12 | 8% | i | i | 1e-09 | -1.3%
O=C(COc1ccc(S(=O)(=O)NC2CCCC2)cc1)N1CCCCCC1 | -9% | i | i | 1.2e-08 | -1.8%
CCOC(=O)Cn1cc(C(=O)c2ccco2)c2ccccc21 | ? | i | i | 4.4e-09 | 1.4%
Cc1ccc2nc(NC(=O)CCNS(=O)(=O)c3cccs3)sc2c1 | . | i | i | 1e-09 | 2.3%
OC[C@@H]1O[C@H](n2cnc3c(/C=C(\O)c4ccccc4)ncnc32)[C@H](O)[C@@H]1O | 1%[11.4 µM] | i | i | 1e-09 | -0.9%[11.5 µM]
Cc1ccc(-c2nn(C)c(=O)c3ccccc23)cc1CN1CCOCC1 | . | i | i | 3.8e-08 | .
CC(=O)OC[C@@H]1O[C@@H](O/N=C2/C[C@@H](O)[C@@H](O)[C@@H]3[C@@H]4C(=O)N(Cc5ccc6c(c5)OCO6)C(=O)[C@H]4CC[C@H]23)[C@H](OC(C)=O)[C@H](OC(C)=O)[C@@H]1OC(C)=O | -4%[11.4 µM] | . | . | . | -1.3%[11.5 µM]
CCOc1ccc(N2C(=O)c3cccnc3C2=O)cc1 | 3% | i | i | 1e-09 | -0.7%
CC1=CCC2C(=O)N(c3nc(C)cc(C)n3)C(=O)C2C1 (centres undefined) | -20% | i | i | 1.6e-08 | 0.2%
COc1cccc(C(=O)N2CCN(C3CCC(c4ccccc4)CC3)CC2)c1 (centres undefined) | ? | i | i | 1.1e-08 | 0.6%
CN1CCN(c2oc(-c3cccs3)nc2S(=O)(=O)c2ccccc2)CC1 | ? | i | i | 2.7e-08 | -0.5%
O=C(c1ccc(NS(=O)(=O)c2ccccc2)cc1)N1CCN(Cc2ccc3c(c2)OCO3)CC1 | 2% | i | i | 4.2e-08 | -1.4%
CCOC(=O)c1sc(NC(=O)CSc2ncn(-c3ccccc3)n2)nc1C | 11% | i | i | 4.4e-09 | -0.3%
N#Cc1ccc(NC(=O)CN2C(=O)NC(Cc3ccccc3)C2=O)cc1 (centres undefined) | -4% | i | i | 2.5e-08 | 0.1%
O=C(O)c1cc(-c2ccc3cc4c(cc3c2)OCO4)nc2ccccc12 | -2%[11.4 µM] | i | i | 1e-09 | 0.4%[11.5 µM]
CCSc1nnc(NC(=O)c2ccccn2)s1 | -4% | i | i | 1e-09 | 1.6%
O=S(=O)(c1cccs1)N1CCN(CC(O)COc2cc(Cl)ccc2Cl)CC1 (centres undefined) | . | i | i | 2.5e-08 | -0.3%
FC(F)(F)c1ccccc1-c1cncnc1NCc1cccs1 | ? | i | i | 1e-09 | 5.7%
O=C(NCC12CC3CC(CC(C3)C1)C2)c1cc2n(n1)C(C(F)(F)F)CC(c1ccco1)N2 (centres undefined) | -1%[11.4 µM] | i | i | 2.3e-09 | 1.6%
CCOC(=O)N1CCN(C(=O)CSCC(=O)Nc2nc(-c3ccc(OC)cc3)cs2)CC1 | 19% | i | i | 3.8e-09 | 1.3%
Cc1ncc(CN=Cc2ccc(Cl)cc2)c(N)n1 | . | i | i | 1e-09 | 0.9%[11.5 µM]
COC(=O)c1ccc(NC(=O)C2CCCO2)cc1 (centres undefined) | -6% | i | i | 3.1e-09 | 0.1%
C[C@@H]1CCc2cc(F)cc3c(=O)c(C(=O)O)cn1c23 | -10%[25.6 µM] | i | i | 3.1e-09 | 0.7%[25.7 µM]
CCOc1cc(C(=O)OCC(=O)NCc2ccco2)cc(OCC)c1OCC | ? | i | i | 1e-09 | -1.8%
COc1ccc2[nH]cc(C(=O)CN(C)CCc3ccc(OC)c(OC)c3)c2c1 | . | i | i | 7.9e-08 | .
O=C(c1ccncc1)N1CCC2(CCCN(Cc3nccs3)C2)CC1 | 0% | i | i | 1e-09 | 6.6%
C=CCNc1nc(N2CCOCC2)c(C#N)c2c1CN(C)CC2 | . | i | i | 1e-09 | .
CC(C)c1cc(CN(C)C)c(O)c(C(C)(C)C)c1 | -5%[11.4 µM] | i | i | 1e-09 | 0.3%[11.5 µM]
CCC(C)c1ccc2oc(-c3ccc(NC(=O)c4ncn[nH]4)cc3)nc2c1 (centres undefined) | -5% | i | i | 1e-09 | -1.6%
CCOc1cc(-c2nc3cc(C)ccn3c2NCC2CCCO2)ccc1O (centres undefined) | -9% | i | i | 1.4e-08 | 4.2%
COc1ccc(OC)c2c(C)cc(NCCN3CCOCC3)nc12 | 5% | . | . | . | 3.0%
N[C@H](CO)C(=O)NCC(=O)O | . | i | i | 1e-09 | 2.4%[11.5 µM]
Cc1ccc(/C(O)=C2\C(=O)C(=O)N(CCN(C)C)C2c2ccccc2F)cc1 (centres undefined) | 2% | . | . | . | 0.6%
O=C(Nc1ccc(F)cc1F)N1CCCCC1c1cccnc1 (centres undefined) | 3%[11.4 µM] | . | . | . | 2.2%
COC(=O)[C@@]1(Cc2ccc(OC)cc2)[C@H]2c3cc(C(=O)N(C)C)n(Cc4cc(C)n(C)n4)c3C[C@H]2CN1C(=O)c1ccccc1 | ? | . | . | . | 0.3%
O=C(Nc1ccc(N2CCN(C(=O)c3ccco3)CC2)c(Cl)c1)c1cccs1 | ? | i | i | 9.4e-09 | -0.3%
O=C(Nc1ccc(Br)c(Cl)c1)c1ccco1 | 20% | i | i | 1e-09 | 0.1%
O=c1c2ccccc2n(Cc2ccc(Cl)cc2)c(=O)n1Cc1ccco1 | ? | i | i | 2.7e-08 | 0.3%
CCOCCCNC(=O)c1[nH]c(C)c(C(C)=O)c1C | -2% | i | i | 1e-09 | -0.5%
N#Cc1c(N)nc2c(c1-c1ccncc1)CCCCCC2 | 5% | i | i | 2.7e-09 | 0.2%
COc1ccc(-c2c(C)n([O-])c3c([n+]2=O)CCC3)cc1OC | -1% | i | i | 1.6e-08 | -1.3%
CCOc1ccc(C(=O)OCn2nnc3ccccc3c2=O)cc1OC | -2%[11.4 µM] | i | i | 2.1e-08 | -1.1%
CC(=O)OC[C@@H]1O[C@H](C/C=N\O[C@@H]2O[C@H](COC(C)=O)[C@@H](OC(C)=O)[C@H](OC(C)=O)[C@H]2OC(C)=O)C=C[C@@H]1OC(C)=O | -1%[11.4 µM] | . | . | . | -0.4%[11.5 µM]

The listing continues.
SMILES | TSHR ag | A488 fluor | Resorufin fluor | A647 fluor | AID923
Cc1cc(C)n(C(=O)CNc2cccc(Cl)c2C)n1 | 22% | i | i | 9.8e-09 | -0.3%
Cc1cc(NC(=O)C2CC(=O)OC2c2ccccc2)no1 (centres undefined) | 0% | i | i | 1e-09 | -0.1%
O=C(Cc1c(C(=O)O)[nH]c2ccccc12)NCCN1CCN(c2ccccc2F)CC1 | 10% | i | i | 1e-09 | 0.8%
O=C(CSc1nnc2sc3ccccc3n12)N1CCN(c2ccccc2)CC1 | 4% | i | i | 1.7e-09 | 0.4%
CCN(CC)c1nc(C)c2c(c1C#N)CC(C)(C)OC2 | . | i | i | 1.3e-09 | .
O=C(O)CSC(NC(=O)c1cccnc1)(C(F)(F)F)C(F)(F)F | 2% | i | i | 2.4e-08 | -1.0%
Cc1ccc(CN(C)CCc2ccccn2)cc1 | -2% | i | i | 1e-09 | 0.5%
Cc1nc2cnc(N3CCN(C)CC3)nc2n(C[C@H]2CCCO2)c1=O | 6% | i | i | 2e-09 | 8.9%
Cc1ccc(Nc2nc(N)nc(CN3CCN(Cc4ccc5c(c4)OCO5)CC3)n2)c(C)c1 | 11% | i | i | 1e-09 | 2.6%
O=C(Oc1ccccc1)N1CCC2(CCCN(c3ccc(-c4ccccc4)cc3)C2)CC1 | 0% | i | i | 6.3e-09 | 3.0%
O=C(CSc1nnc(-c2ccccc2Br)o1)N1CCc2ccccc2C1 | ? | i | i | 1.4e-09 | 1.6%
Cc1ccc(NC(=O)Cn2cccc2)c(Br)c1 | 7%[11.4 µM] | i | i | 3e-08 | 0.0%
CCOC(=O)c1nn(-c2cc(C(=O)OC)cc(C(=O)OC)c2)cc1O | -2% | i | i | 2.4e-09 | 0.3%
Cn1c(=O)oc2cc(S(=O)(=O)NCCC(=O)NC3CCCC3)ccc21 | -2% | i | i | 3.7e-08 | 0.8%
CCOC(=O)N1CCN(C(=O)c2ccc(NS(C)(=O)=O)cc2)CC1 | 0% | i | i | 1e-09 | 2.2%

Retrieved one by one from the list above, three records:
SMILES | TSHR ag | A488 fluor | Resorufin fluor | A647 fluor | AID923
O=C(CSc1nnc(-c2ccccc2Br)o1)N1CCc2ccccc2C1 | ? | i | i | 1.4e-09 | 1.6%
Cc1ccc(NC(=O)Cn2cccc2)c(Br)c1 | 7%[11.4 µM] | i | i | 3e-08 | 0.0%
CCOC(=O)c1nn(-c2cc(C(=O)OC)cc(C(=O)OC)c2)cc1O | -2% | i | i | 2.4e-09 | 0.3%
